Compound activity as filed in PubChem BioAssay.
NS1 function inh: blocks influenza NS1 protein function | Potency, µM (doses to about 46.1 µM), inactives show top-dose activity, positive = more growth | AID 2326 | 0.4% of 270,000 active | S. cerevisiae slowed by influenza A NS1, growth recovery by OD600; active means well fitted rising curve with a large enough effect; inconclusive means small, poorly fitted or top-dose-only effect; inactive means no such curve, though single readings can be large or run the other way; further: nearly all actives have a fitted effect of over 50% in size
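In this qHTS, NS1 from influenza A is expressed in budding yeast, where it slows growth. Cells are switched from glucose to 2% galactose medium (pH 6.0, -URA), treated with compound, and growth recovery is read at OD600.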
Cruzain Triton: inhibitors of Trypanosoma cruzi cruzain with detergent; 0.43% of 200,000 active; Potency, µM, without a hit: max response, negative = inhibition, usual class: inhibitors; purified cruzain, Z-FR-AMC fluorescence, 0.01% Triton; P25779; AID 1478;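 further: plate controls were neutral wells for no effect and buffer without enzyme for full effect; nearly all actives have a fitted effect of over 40% in size; top concentration of the series not given in the record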
Target sequence (P25779 123-467 limits assumed): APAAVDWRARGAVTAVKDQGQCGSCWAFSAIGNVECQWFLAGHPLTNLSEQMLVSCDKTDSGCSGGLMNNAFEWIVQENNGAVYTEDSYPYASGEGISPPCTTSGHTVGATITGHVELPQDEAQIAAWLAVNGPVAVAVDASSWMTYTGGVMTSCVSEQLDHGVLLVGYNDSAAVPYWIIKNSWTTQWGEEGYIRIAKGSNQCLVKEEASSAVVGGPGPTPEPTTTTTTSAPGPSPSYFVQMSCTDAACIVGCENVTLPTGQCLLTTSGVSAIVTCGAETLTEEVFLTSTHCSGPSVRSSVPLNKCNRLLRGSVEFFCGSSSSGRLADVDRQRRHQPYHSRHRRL
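Detergent-containing arm of a paired screen for aggregation-based inhibition: 0.01% Triton X-100 present. Cruzain at 1.5 nM cleaved 2 uM Z-FR-AMC at pH 5.5 with 5 mM DTT; AMC fluorescence gain over 60 s measured activity.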
Cruzain noTriton: blocks cruzain activity in detergent-free assay | Potency, µM, for inactives: max response, negative = inhibition, hits mostly inhibitors | 2.3% of 200,000 active | P25779 | AID 1476 | purified cruzain, Z-FR-AMC fluorescence, no detergent;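 further: plate controls were enzyme without inhibitor for no effect and buffer without enzyme for full effect; nearly all actives have a fitted effect of over 40% in size; top concentration of the series not given in the record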
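Purified cruzain at 1.5 nM, pre-incubated 15 min with compound at room temperature in 100 mM sodium acetate pH 5.5, 5 mM DTT, 0.00005% Triton X-100. Reaction started with 2 uM Z-FR-AMC; AMC fluorescence increase over 60 s gives rate.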
LASV entry inh: Lassa virus entry inhibition; Lassa virus pseudotype entry inhibition, cell reporter; control for the full effect not named in the record; Potency, µM (top dose mostly 37.9 µM), without a hit: at the highest dose activity change, negative = inhibition, usual class: inhibitors; 1.2% of 300,000 active; AID 540256; active means well fitted inhibition curve with a large enough effect; inconclusive means small, poorly fitted or top-dose-only effect, or effect the other way; inactive means flat fitted curve, though single readings scatter; tested in HEK293 cells; further: on the % scale 0 is the no-effect control and ±100 the full control effect; nearly all actives have a fitted effect of over 50% in size; luciferase read-out
SARS PLpro yeast: blocks SARS-CoV papain-like protease in a yeast assay; S. cerevisiae expressing SARS-CoV PLpro, growth rescue; control for the full effect not named in the record; AID 485353; Potency, µM (series often up to 32.9 µM), without a hit: at the top dose activity, positive = growth rescue; 0.19% of 330,000 active; active means well fitted rising curve with a large enough effect; inconclusive means small, poorly fitted or top-dose-only effect; inactive means no such curve, though single readings can be large or run the other way; further: 0% is about no effect; nearly all actives have a fitted effect of over 55% in size; growth read by luminescence after 48 h
StopGo reporter: lowers the luciferase signal of an FMDV 2A StopGo reporter; human cells with a luciferase reporter of 2A StopGo recoding; control for the full effect not named in the record; Potency, µM (highest dose often 57.9 µM), for inactives: at the top dose signal change, negative = less light; 1.2% of 410,000 active; AID 1159524; active = well fitted falling curve with a large enough effect; inconclusive = small, poorly fitted or top-dose-only effect; inactive = no such curve, though single readings can be large or run the other way; tested in HEK293T cells; further: on the % scale 0 is the no-effect control and ±100 the full control effect; nearly all actives have a fitted effect of over 45% in size; luciferase light after 4 h
Marburg entry inh: blocks Marburg virus binding to or entry into cells; Marburg virus pseudotyped entry inhibition, cell reporter; control for the full effect not named in the record; about a third of the inactives were read at about 46 µM; 1.8% of 300,000 active; Potency, µM (doses to about 37.8 µM), for the others: top-dose activity change, negative = inhibition, usual class: inhibitors; active = well fitted inhibition curve with a large enough effect; inconclusive = small, poorly fitted or top-dose-only effect, or effect the other way; inactive = flat fitted curve, though single readings scatter; tested in HEK293 cells; about a fifth of its hits are not listed in these tables; further: on the % scale 0 is the no-effect control and ±100 the full control effect; luciferase read-out
RE007 growth inh: less growth of the S. pombe RE007 Vpr strain; S. pombe RE007 Vpr strain, BacTiter-Glo ATP luminescence, 24 h; control for the full effect not named in the record; Potency, µM (top dose mostly 92.2 µM), for inactives: top-dose activity change, negative = less growth; 0.21% of 360,000 active; active = well fitted falling curve with a large enough effect; inconclusive = small, poorly fitted or top-dose-only effect; inactive = no such curve, though single readings can be large or run the other way;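 further: on the % scale 0 is the no-effect control and ±100 the full control effect; nearly all actives have a fitted effect of over 50% in size; the assay follows cell death caused by Vpr and the record does not say whether a fall means rescue or toxicity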
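Fission yeast strain RE007, carrying one chromosomally integrated HIV-1 vpr copy, was seeded at OD 0.01 in PMG+AL medium with 23 nL pinned compound. After 24 h at 30 °C and 99% humidity, viability was read by BacTiter-Glo luminescence.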
Numbers without * were called inactive; ? = inconclusive; . = not tested or not shown; & = joins results of further samples; [ ] = dose if it differs, or a comment. Unless noted, the call rests on the fitted dose curve; in most records, active means well fitted curve in the direction sought with a large enough effect; inconclusive means small, poorly fitted or top-dose-only effect, or another doubt; inactive means no such curve, though single readings can be large; an effect the other way counts as inactive or inconclusive. Potency means the concentration at half of the fitted maximal effect.

SMILES | NS1 function inh | Cruzain Triton | Cruzain noTriton | LASV entry inh | SARS PLpro yeast | StopGo reporter | Marburg entry inh | RE007 growth inh
COC(=O)c1cc(S(=O)(=O)N2CCN(c3cccc(C)c3)C(C)C2)cn1C (stereo not given) | . | -3.1% | 2% | ? | . | ? | . | .
O=C(O)C(Cc1cc2ccccc2[nH]1)N1C(=O)C2CC=C(Cl)CC2C1=O (stereo not given) | 10% | -1.9% | -5% | 6% | -1% | -2% | 11%[46.1 µM] | 11%
CC1=[N+]([O-])C(C)(C)CC(C)(C)c2ccccc21 | 1% | 2.4% | -7% | -4% | 4% | 6% | 2%[46.1 µM] | -11%
O=C(Nc1ccc2nc(-c3cccs3)[nH]c2c1)c1cccs1 | -7% | 3.2% | 18% | 18% | -7% | 15% | -8%[46.1 µM] | -9%
CC(Oc1ccc(Cl)cc1)C(=O)NCC1CCCO1 (stereo not given) | -3% | . | . | 4% | -2% | -11% | 2%[46.1 µM] | -13%
Cc1ccc(-n2nc(CO)c(C(=O)NCCC(C)C)n2)cc1C | . | -3.1% | -14% | 27%[46.1 µM] | . | -5% | -5%[46.1 µM] | .
CCCCn1c(N)c(N(CC)C(=O)c2ccc3c(c2)S(=O)(=O)c2ccccc2C3=O)c(=O)[nH]c1=O | -4% | 1.8% | 0% | 0% | 1% | -3% | 4% | 9%
O=C(CSc1ncnc2c1cnn2-c1cccc(Cl)c1)NCC1CCCO1 (stereo not given) | 2% | . | . | ? | -5% | ? | -8% | -2%
COc1cccc(Cn2cc(N)cn2)c1 | 0% | . | . | 5% | -1% | 2% | ? | -4%
CSc1ccc(CCNC(=O)c2ccc(CS(=O)(=O)c3ccc(Br)cc3)o2)cc1 | . | -5.1% | 2% | ? | . | ? | . | .
OCC1(Cc2ccccc2)CCCN(Cc2c[nH]c3ccccc23)C1 (stereo not given) | 2% | . | . | 7%[46.1 µM] | 0% | -1% | ? | 7%
Cc1cccc(C(=O)Nc2ccc(N3CCN(c4ccc(C(F)(F)F)cn4)CC3)nc2)c1 | 0% | . | . | 2% | -1% | -15% | 6% | -2%
CC(C)c1[nH]nc2c1C(c1ccco1)C(C#N)=C(N)O2 (stereo not given) | -3% | . | . | . | -1% | -21% | . | 6%
CC1CC[C@@]2(OC1)O[C@H]1CC3[C@@H]4C[C@@H](O)[C@@]5(O)C[C@@H](O)[C@H](O)C[C@]5(C)[C@H]4CC[C@]3(C)[C@H]1[C@@H]2C (stereo not given in full) | 8% | . | . | ? | 1% | -15% | 5%[46.1 µM] | -1%
O=C(c1ccc(Cn2c(=S)[nH]c3ccc(N4CCOCC4)cc3c2=O)cc1)N1CCN(c2ccc(F)cc2)CC1 | . | . | . | -14% | 1% | 42%[activator] | ? | -1%
CSCC[C@H](NC(=O)c1cc([N+](=O)[O-])ccc1Cl)c1nc2ccccc2[nH]1 | 1% | 22µM* | -7% | . | 15% | ? | . | 8%
COc1ccc(N(CC(=O)N2CCN(Cc3ccccc3)CC2)S(C)(=O)=O)c(OC)c1 | 5% | . | . | . | 8% | -13% | . | -16%
CCCC(C)NC(=S)Nc1cc(C)cc(C)c1 (stereo not given) | -67% | . | . | 11% | -4% | 1% | 6% | 0%
N#Cc1cnn2cc(CCN3CCOCC3)c(-c3ccc(F)cc3)nc12 | -3% | . | . | -22%[46.1 µM] | 0% | 14% | -16%[46.1 µM] | 8%
COC1OC2COC(c3ccccc3)OC2C(OC(=O)c2ccccc2)C1OC(=O)c1ccccc1 (stereo not given) | . | . | . | ? | . | -3% | ? | 0%
CCCn1c(=O)c2sccc2n2c(CCCC(=O)N3CCN(c4ccccc4OC)CC3)nnc12 | . | 1.2% | 11% | 16%[46.1 µM] | . | -16% | . | .
N#CC1CCCc2c1[nH]c1ccc([N+](=O)[O-])cc21 (stereo not given) | 1% | . | . | ? | 0% | -18% | 10µM* | 0%
O=C(N/N=C/c1cc([N+](=O)[O-])ccc1O)C(O)(c1ccccc1)c1ccccc1 | -20% | . | . | -16%[46.1 µM] | ? | -26% | ? | -9%
c1ccc(C2c3[nH]c4ccccc4c3CCN2Cc2cccn2-c2ccccn2)nc1 (stereo not given) | 1% | . | . | . | 0% | -24% | . | -6%
Cc1c(NC(=O)Nc2ccc(C#N)cc2)c(=O)n(-c2ccccc2)n1C | 5% | 0.4% | 0% | 13%[46.1 µM] | 0% | -13%&13% | -2%&-2%[46.1 µM] | -20%
O=C1Nc2ccc(Br)cc2C1Cc1ccccc1F (stereo not given) | -14% | . | . | -1%[46.1 µM] | -2% | 3% | ? | 5%
COC(=O)[C@@]1(Cc2ccc(F)cc2)[C@H]2c3cc(C(=O)N4CCCC4)n(C[C@H](O)CO)c3C[C@H]2CN1C(=O)c1ccccc1 | . | 1.8% | ? | . | . | -18% | . | 11%
Cc1cc(NC(=O)C(Cl)Cl)cc2c1OCO2 | . | . | . | 2%[46.1 µM] | . | -17% | ? | -10%
O=C(COC(=O)C1(c2ccccc2F)CCCC1)NCc1ccc2c(c1)OCO2 | -17% | -6.4% | 4% | ? | -25% | 0% | -7% | 8%
CCCCn1c(SCC(=O)Nc2cc(C(F)(F)F)ccc2Cl)nnc1C(CC)N(C)C (stereo not given) | -5% | -0.8% | 0% | -8% | 0% | -19% | ? | -10%
O=C(N/N=C/c1ccc(-c2ccccc2Cl)o1)c1ccccc1 | . | . | . | ? | -2% | 28% | ? | 4%
Cc1c(C(=O)Nc2nc3ccccc3[nH]2)oc2ccccc12 | -12% | -8.6% | 11% | ? | -61% | -27% | ? | ?
c1ccc(Oc2cccc(OCCn3cncn3)c2)cc1 | -5% | -1.0% | -5% | 11% | 1% | 19% | 4% | 16%
Cc1cccc(-c2nc(CSCC(=O)NCCCN3CCOCC3)c(C)o2)c1 | 2% | -4.2% | -8% | 1% | -8% | -18% | 2% | 13%
Cc1ccc(N(CCC#N)C(=O)CCl)cc1C | -11% | 0.6% | -6% | 7.9µM* | -3% | 28µM* | 7.1µM* | 1%
CCc1ccc(S(=O)(=O)Nc2cccc(-c3ccc(OC)nn3)c2)s1 | . | -6.5% | -4% | 0%[46.1 µM] | . | 8% | . | .
CC(C)(C)C(CN1CCCC1)OC(=O)c1ccccc1 (stereo not given) | 1% | . | . | 10% | 0% | -7% | 20% | -11%
CCOc1ccc(S(=O)(=O)N(CC)CC)cc1N | . | . | . | 7% | -1% | 1% | 19% | 6%
Cc1ccccc1NC(=O)c1c(NC(=O)c2ccccc2)sc2c1CCC2 | . | 1.9% | 16% | 16%[46.1 µM] | . | -7% | . | .
CC(=O)Nc1cccc(-c2csc(Nc3cccc(C)n3)n2)c1 | 7% | -24% | 6% | 22% | -2% | . | ? | -8%

The last five compounds of the section above come first, to join the parts.
SMILES | NS1 function inh | Cruzain Triton | Cruzain noTriton | LASV entry inh | SARS PLpro yeast | StopGo reporter | Marburg entry inh | RE007 growth inh
CCc1ccc(S(=O)(=O)Nc2cccc(-c3ccc(OC)nn3)c2)s1 | . | -6.5% | -4% | 0%[46.1 µM] | . | 8% | . | .
CC(C)(C)C(CN1CCCC1)OC(=O)c1ccccc1 (stereo not given) | 1% | . | . | 10% | 0% | -7% | 20% | -11%
CCOc1ccc(S(=O)(=O)N(CC)CC)cc1N | . | . | . | 7% | -1% | 1% | 19% | 6%
Cc1ccccc1NC(=O)c1c(NC(=O)c2ccccc2)sc2c1CCC2 | . | 1.9% | 16% | 16%[46.1 µM] | . | -7% | . | .
CC(=O)Nc1cccc(-c2csc(Nc3cccc(C)n3)n2)c1 | 7% | -24% | 6% | 22% | -2% | . | ? | -8%
CCCNC(=O)c1ccc(N2CCC3(CC2)CC(c2ccccc2)=NO3)c(NC(=O)c2ccccc2)c1 | -14% | . | . | . | -3% | -21% | . | -4%
CC1CN(S(=O)(=O)c2cccc(C(=O)OCC(=O)N3CCCCCC3)c2)CC(C)O1 (stereo not given) | . | . | . | -14%[46.1 µM] | 2% | -6% | -9%[46.1 µM] | -10%
CC12CCC(O)CC1CCC1C2CCC2(C)C(C3=CC(=O)OC3)C(O)CC12O (stereo not given) | . | . | . | 3.2µM* | . | ? | 0.63µM* | 10%
COC(=O)c1ccc(Nc2cc(C)nc3ccccc23)cc1 | -3% | . | . | ? | 0% | -22% | ? | -6%
CC1Cc2nc(SCC(=O)Nc3ccc(F)cc3)n(C)c(=O)c2S1 (stereo not given) | -41% | -1.8% | 3% | -11% | 0% | -27% | -3% | 4%
CCOC(=O)c1c2c(c(=S)n(-c3ccccc3)c1N)CCC2 | -99% | -15% | ? | 8% | -8% | 0% | ? | -23%
CC(C)N1C(=O)CSC1c1ccc(Br)cc1 (stereo not given) | . | . | . | 6%[46.1 µM] | 1% | 1% | 16%[46.1 µM] | 18%
Fc1ccc(-n2nnc(-c3nccs3)n2)cc1 | -5% | . | . | . | -2% | 17% | . | ?
O=S(=O)(c1ccc(Br)cc1)N1CCCN(Cc2cccc(F)c2)CC1 | -9% | -3.4% | -2% | -3%&-12% | -18% | -14% | ? | 4%
Cc1cc(C)c(S(=O)(=O)N2CCOC2CNC(=O)C(=O)NCCc2ccc(S(N)(=O)=O)cc2)c(C)c1 (stereo not given) | 3% | . | . | . | ? | ? | . | -14%
CCOC(=O)c1ccccc1NC(=O)CSc1nnc(Cc2cccn2C)n1-c1ccc(F)cc1 | -6% | -5.9% | ? | ? | -6% | -21% | 1%&-15% | -8%
CC(C)(C)OC(=O)NC1CONC1=O (stereo not given) | 3% | 1.1% | -2% | -25%[46.1 µM] | -13% | 1% | -5%[46.1 µM] | 7%
CN(CC(=O)Nc1cccc(F)c1)C(=O)c1ccccc1-n1cnnn1 | . | . | . | 8% | 10% | 1% | 5%[46.1 µM] | -15%
COc1ccc2c(c1OC)C(=O)N1C2SC[C@H]1C(=O)NC1CCCCC1 (stereo not given in full) | 24% | . | . | . | -4% | -27% | . | 4%
